Mtb betalactam: beta-lactam sensitization of Mtb H37Rv, H37Rv; M. tuberculosis H37Rv growth with meropenem, percent inhibition; hits of this screen are not shown here; inhibition, % at 25 µM; actives 0.27% (n = 330,000); AID 434955, 2010;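 active = about 74% or more and at least 40 points above the plate without the antibiotic, then above 30% in a dose series; inconclusive = first-round hits that could not be retested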;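 note: growth measured after seven days incubation then overnight dye step; 0% = bacteria only wells and 100% = bacteria with antibiotic; twin plates without the antibiotic show which effects depend on it; some results filed as inactive read as strong as hits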
Mtb growth: M. tuberculosis H37Rv growth inhibitors, H37Rv strain (AID 1626). actives 0.95% (n = 220,000). M. tuberculosis H37Rv growth inhibition; higher % means a stronger effect. inhibition, % at 10 µM; hits with a dose series show IC50 in µM;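 active = confirmed in a dose series; inconclusive = inhibition above 80% but not taken into the dose series; inactive = below 80% or under 30% at every dose of the series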;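 note: bacteria incubated seven days before Alamar blue readout; 0% = bacteria only wells and 100% = bacteria with antibiotic wells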
RecA intein inh: Mtb RecA intein splicing inhibitors, primary screen, biochemical, fluorescence, HTS; Protein RecA (Mycobacterium tuberculosis (strain ATCC 25618 / H37Rv)), P9WHJ3; cell-free RecA intein splicing; inhibition, %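 (about 9 µM by stock and volumes)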; actives 0.75% (n = 290,000); AID 2221, 2009; in the data active = inhibition above about 30%; inconclusive = no clear call, values can overlap the other calls;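 note: 0% = vehicle wells and 100% = reference inhibitor control wells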
Target sequence (P9WHJ3 whole entry, looked up): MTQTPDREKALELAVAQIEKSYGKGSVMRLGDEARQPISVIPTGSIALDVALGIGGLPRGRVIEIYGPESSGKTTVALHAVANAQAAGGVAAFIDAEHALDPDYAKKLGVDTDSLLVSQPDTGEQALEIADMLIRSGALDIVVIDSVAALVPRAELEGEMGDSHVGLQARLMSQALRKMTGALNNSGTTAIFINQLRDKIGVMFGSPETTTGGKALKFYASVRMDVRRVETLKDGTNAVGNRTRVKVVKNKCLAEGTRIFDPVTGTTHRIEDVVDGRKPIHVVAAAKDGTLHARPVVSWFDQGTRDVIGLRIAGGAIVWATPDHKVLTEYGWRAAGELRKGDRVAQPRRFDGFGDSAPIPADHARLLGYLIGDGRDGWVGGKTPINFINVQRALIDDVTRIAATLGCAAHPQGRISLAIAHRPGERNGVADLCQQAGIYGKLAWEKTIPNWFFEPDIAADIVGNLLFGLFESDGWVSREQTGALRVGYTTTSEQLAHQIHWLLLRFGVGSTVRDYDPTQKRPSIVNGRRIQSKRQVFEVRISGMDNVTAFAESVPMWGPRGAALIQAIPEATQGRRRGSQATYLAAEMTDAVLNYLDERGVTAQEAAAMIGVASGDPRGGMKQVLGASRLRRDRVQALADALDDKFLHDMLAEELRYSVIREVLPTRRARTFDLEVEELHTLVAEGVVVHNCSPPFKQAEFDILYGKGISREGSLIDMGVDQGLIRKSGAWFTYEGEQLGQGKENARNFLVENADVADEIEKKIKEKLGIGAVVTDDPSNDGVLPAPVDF
YopH inh: YopH tyrosine phosphatase inhibitors, primary screen, biochemical, fluorescence Ex485/Em525. inhibition, %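 (about 10 µM by stock and volumes)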. actives 0.16% (n = 140,000). YopH tyrosine phosphatase [Yersinia enterocolitica]. AID 898, 2007;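 active = inhibition of 50% or more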;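 note: controls were vehicle for no effect and minimum signal wells for full effect; inactives centre near -20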
Arbovirus inh: antivirals against arbovirus infection, primary screen, cell-based, full library, 10K replicate subset; inhibition, % at 10 µM; arbovirus infection cell-based antiviral screen; actives 0.37% (n = 200,000);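 active = inhibition from about 30%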;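 note: bluetongue infection of BSR cells; cell survival read as ATP light after 72 h; 0% = infected wells without compound and 100% = uninfected wells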
Arbovirus inh repeat: second read-out of Arbovirus inh, no call of its own (marks repeat the call); inhibition, %; measured here: 10K subset replicate screen; many hits read low in the repeat;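 first of two repeat runs on a subset; 0% = infected and 100% = uninfected wells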
* marks the source's active call; other numbers are inactive results; u = inconclusive; x = not tested or not shown. These rows are one share of the data (hit frequency here may not be typical).

The opening two entries, ahead of the listing:
SMILES | Mtb betalactam | Mtb growth | RecA intein inh | YopH inh | Arbovirus inh | others
Cc1cc(C(=O)Nc2nnc(C(F)(F)F)s2)no1 | u | 0% | -0.7 | -16 | 15
CC(=C/C(=O)O)/C=C/c1ccc(Cl)o1 | 35 | 5% | -0.3 | 36 | 6

Main list, from the start:
SMILES | Mtb betalactam | Mtb growth | RecA intein inh | YopH inh | Arbovirus inh | others
Cc1cc(C(=O)Nc2nnc(C(F)(F)F)s2)no1 | u | 0% | -0.7 | -16 | 15
CC(=C/C(=O)O)/C=C/c1ccc(Cl)o1 | 35 | 5% | -0.3 | 36 | 6
Cc1ccc(NC(=O)c2cc(-c3ccc(C)o3)nc3ccccc23)cc1 | 11 | 0% | -1.0 | -6 | -2
CC(=O)Nc1sc(N/N=C\c2ccccc2Cl)nc1-c1cccs1 | 0 | 2% | 0.5 | -18 | -17
Cc1nn(-c2ccc(F)cc2)c2nc(N)c(C#N)c(-c3ccc(O)c(O)c3)c12 | 2 | x | 0.9 | x | x
C=CCN1CCN(c2ccncc2S(=O)(=O)N2CCOCC2)CC1 | -8 | -9% | -2.5 | 2 | 2
COc1ccccc1NC(=O)c1cc(S(=O)(=O)NCc2ccccc2)ccc1F | -2 | -3% | -0.3 | x | -12
Cc1cccc(N(CC(=O)NC(C)(C)C)C(=O)CNC(=O)c2cccs2)c1C | -1 | -9% | 2.2 | x | x
O=C(Cn1c(=O)n(CC2CCCO2)c(=O)c2ccccc21)N1CCN(c2ccccc2)CC1 (stereo not given) | -7 | 3% | 1.6 | -8 | 2
O=C(Nc1ccc(C(F)(F)F)cc1)c1ccc2ncsc2c1 | 3 | x | -1.3 | x | x
O=C(Cc1ccccc1)Nc1ccc(NC(=O)c2cccnc2)cc1 | -4 | x | 1.2 | x | x
S=C1SCN(Cc2ccccn2)CN1Cc1ccco1 | 85 | -6% | -1.7 | -50 | 3
Cc1cc(C)cc(C(=O)O/N=C(\N)c2ccc(Br)cc2)c1 | 5 | 0% | -0.5 | -117 | -1
C=CCCN([C@@H](C)C(=O)OC)S(=O)(=O)c1ccccc1Br | -2 | -13% | 1.3 | x | x
CCN(Cc1cc(=O)n2ccsc2n1)Cc1nc2ccccc2c(=O)[nH]1 | -8 | 0% | -6.1 | x | -2
CC(C)CC(c1nnnn1Cc1ccc(F)cc1)N1CCC(C(N)=O)CC1 (stereo not given) | -8 | 3% | -2.1 | x | 12
O=C(COc1ccccc1[N+](=O)[O-])Nc1ccc(Br)cc1 | -11 | -6% | x | x | x
CCOC(=O)Cn1c(C)cc(=O)c2ccccc21 | -10 | -7% | -1.3 | 6 | -2
O=C(O)c1cn(-c2ccccc2)nc1-c1ccc(Cl)cc1 | -5 | -3% | 1.7 | 14 | x
O=C(CCc1nnc2n(Cc3ccc(Cl)cc3)c(=O)c3ccccc3n12)NCCN1CCCC1 | 0 | x | -1.1 | x | x
CC(C)C(=O)N(Cc1ccccc1)c1ccccn1 | -3 | 2% | 1.8 | -6 | 2
Cc1cc(OC(=O)c2cc(Cl)nc3ccccc23)ccc1Cl | 56 | 5% | -0.3 | 4 | 3
CC(C)CCNC(=O)c1ccc(-n2cnc3cccnc32)cc1 | -2 | x | -0.4 | x | x
CCOC(=O)Nc1c2ccccc2nc2ccccc12 | 5 | 0% | -103 | x | x
C=CCN(c1cccc(C(F)(F)F)c1)S(=O)(=O)c1cccc(C(=O)OCC(=O)Nc2ccccc2)c1 | 3 | 9% | 1.9 | 4 | -1

New compounds follow:
SMILES | Mtb betalactam | Mtb growth | RecA intein inh | YopH inh | Arbovirus inh | others
O=C1CC(c2ccccc2)CN1C(=O)c1ccccc1 (stereo not given) | -1 | -16% | 2.8 | -34 | 3 | Arbovirus inh repeat=2
CCCCC1CC1C(=O)Nc1ccc(OC)c(OC)c1 (stereo not given) | -4 | -5% | 3.5 | -49 | 1
CNC(=O)COC(=O)/C=C/c1ccc(F)cc1 | 6 | -4% | x | x | -2
S=c1[nH]nc(-c2cccs2)n1/N=C/c1cccs1 | 1 | -16% | x | x | 11
Cc1c(N(C)S(=O)(=O)c2ccc(Cl)c(C(=O)N3CCC(C(N)=O)CC3)c2)c(=O)n(-c2ccccc2)n1C | 3 | x | -2.2 | x | x
O=C(COc1ccccc1Cl)NC(=O)NC1CCCC1 | -2 | -1% | x | -9 | -1
O=[N+]([O-])c1cccc(CSc2nc3ccccc3[nH]2)c1 | 12 | 22% | 4.5 | -10 | -2
Cc1ccc(NS(=O)(=O)c2ccc3c(c2)NC(=O)CO3)cc1C | 6 | x | -0.4 | x | x
COc1ccc(/C=C/C(=O)O)cc1S(=O)(=O)N1CCC(C)CC1 | 1 | -7% | -1.0 | x | x
COc1ccc(C(=O)c2nc3ccccc3n2C(C)C)cc1OC | -7 | x | 2.6 | x | x
COc1ccc(-c2nc3scc(-c4ccccc4)n3n2)cc1 | 3 | -11% | 2.1 | -58 | -3
FC(F)Oc1cccc2cccnc12 | -7 | -10% | -0.1 | -5 | 0
CC(C)(C)c1cc(CP(=O)(c2ccccc2)c2ccccc2)cc(C(C)(C)C)c1O | -7 | x | 22 | x | x
O=C(O)C1CC=CCC1C(=O)c1ccccc1 (stereo not given) | 68 | -7% | 0.6 | -76 | 7
CC(C)C[C@H](NC(=O)C1CCC(CNC(=O)[C@@H]2CCCN2C(=O)OC(C)(C)C)CC1)C(=O)O (stereo not given in full) | 0 | x | -3.0 | x | x
COc1ccc2ccc(O)c(CN(C)CC(=O)Nc3ccccc3C(F)(F)F)c2c1 | 1 | x | -3.8 | x | x
COc1ccc(CSc2nc3ccccc3c(=O)[nH]2)cc1F | 6 | 7% | 0.8 | x | 10
CCN(C(=O)CN1C(=O)/C(=C/c2ccc(F)cc2)SC1=S)C1CCS(=O)(=O)C1 (stereo not given) | 3 | x | -1.3 | x | x
Cc1cccc(NS(=O)(=O)c2cc3c(cc2C)n(C)c(=O)c(=O)n3C)c1 | u | x | 1.2 | x | x
CCOC(=O)C1(CC2CCCCO2)CCN(Cc2nc(-c3cccs3)oc2C)CC1 (stereo not given) | 11 | -2% | 0.2 | x | 8
CCN(CC(=O)NC1CCS(=O)(=O)C1)Cc1nc2c(Br)cc(Br)cc2c(=O)[nH]1 (stereo not given) | 2 | 6% | x | x | 4
Cc1ccc(NC(=O)CCSc2ccccc2)c(C)c1 | 2 | 4% | -2.7 | x | -6
Cc1ccc(S(=O)(=O)N(C)c2ccc(C(=O)Nc3cccc(C)n3)cc2)cc1 | -8 | x | 2.6 | x | x
C=CCN1C(=O)C2C(C(=O)NC3CCCC3)C3C=CC2(O3)C1C(=O)NC1CCCC1 (stereo not given) | 1 | x | 0.3 | x | x
COc1ccc(OC)c(NC(=O)COc2coc(CN3CCc4ccccc43)cc2=O)c1 | 0 | x | 0.6 | x | x

More compounds
SMILES | Mtb betalactam | Mtb growth | RecA intein inh | YopH inh | Arbovirus inh | others
COc1ccc(C(C)NC(=O)c2ccccc2)cc1 (stereo not given) | 9 | 17% | 0.3 | -1 | -1
COc1cc(S(=O)(=O)NCc2ccc(F)cc2)ccc1-n1cnnn1 | 3 | x | -221 | x | x
O=C(CSc1nnc(CCc2nc3ccccc3[nH]2)n1-c1ccccc1)NCc1ccco1 | 7 | 3% | 1.5 | -26 | 7
CC(=O)Cc1nsc(NC(=O)c2ccc(-c3ccc(Cl)cc3Cl)o2)n1 | 1 | -7% | -1.1 | 15 | -13
COc1ccc(NC(=O)CN(C)C(=O)CC2CCCC2)cc1 | -6 | x | -1.0 | x | x
CCn1c(SCC(=O)NC2CCCCC2)nnc1-c1ccccc1F | 8 | x | 0.7 | x | x
CCOC(=O)C1=C(O)/C(=C\c2cccc(OC)c2)N=C1C | 15 | -6% | -2.6 | -27 | 11
CCc1cc(=O)oc2cc(C)cc(OCC(=O)NCc3cccnc3)c12 | -8 | x | -0.4 | x | x
COc1ccc(-n2nc(C(=O)O)nc2-c2ccccc2)cc1 | -17 | -6% | -2.7 | -19 | 8
NC(=O)CC12CC3CC(C1)CC(CC(N)=O)(C3)C2 | -4 | -3% | x | 7 | 10
CCOC(=O)Cc1csc(NC(=O)CSc2nnc(-c3ccc(F)cc3)o2)n1 | -2 | 8% | -1.8 | -4 | 0
COc1ccc(OCCSc2nnnn2C2CCCCC2)cc1 | -1 | 10% | 7.3 | -3 | -8
CC(C)CCNC(=O)NC(=O)CSc1nnc(-c2ccccc2F)n1N | -6 | 2% | 0.5 | -3 | 8
Cc1cc(C)n2c(SCC(=O)N(CC(C)C)c3c(N)n(CC(C)C)c(=O)[nH]c3=O)nnc2n1 | 8 | -6% | 5.0 | x | 6
CCOC(=O)Cc1cnc(NC(=O)CSc2nc(N)cc(=O)[nH]2)s1 | 1 | 2% | x | x | 20
CCO[C@@H]1OC(C(=O)NC2CC2)=C[C@H](c2csc3ccccc23)[C@H]1CCCO | -1 | -7% | -0.9 | x | 3
COc1ccc(N2CN=C3SCC(=O)N3C2)cc1 | 96 | 46µM* | 1.0 | 1 | -16
CCOC(=O)C(CC)Sc1nnc2c3cc(C)ccc3n(C)c2n1 (stereo not given) | 27 | 3% | 2.0 | -33 | 0
CC1(CCC(=O)N2CCCC(N3CCN(c4cccc(C(F)(F)F)c4)CC3)C2)CC1 (stereo not given) | 6 | x | 6.7 | x | x
CC(=O)N(OCc1ccc(OC(C)C)c(Cl)c1)C(C)=O | 0 | 6% | 2.0 | x | x
CC1(C)Cc2ccccc2-c2nnc(-c3ccco3)n21 | -1 | -6% | 1.1 | -18 | -1
Cn1cccc1Cc1nnc(SCC(=O)Nc2ccc3c(c2)OCCO3)n1-c1ccc(F)cc1 | 0 | -7% | 2.0 | -6 | 4
Cc1cc(NC(=O)CCCSc2nc(-c3ccco3)cc(C(F)(F)F)n2)no1 | -2 | -4% | 3.9 | 6 | -1
COc1ccc(C(O)(CCN2CCOCC2)c2ccccc2)cc1 (stereo not given) | -11 | x | -0.6 | x | x
CC1CCN(C(=O)CC#N)CC1 | 10 | -6% | -4.9 | x | x

Remaining list, next part
SMILES | Mtb betalactam | Mtb growth | RecA intein inh | YopH inh | Arbovirus inh | others
CCOc1ccc(OCCC(=O)OCC(=O)NC(C)c2ccccc2)cc1 (stereo not given) | 4 | x | -2.2 | x | x
O=C(N/N=C/c1ccccc1[N+](=O)[O-])c1ccc2nc[nH]c2c1 | -9 | -12% | 2.5 | x | x
O=C(CN1C(=O)CSc2ccccc21)N1CCc2ccccc21 | -6 | x | 2.2 | 4 | -2
COc1ccc(NC(=O)c2cc(=O)[nH]c(=O)[nH]2)cc1S(=O)(=O)Nc1ccccc1Cl | -2 | -1% | -0.4 | x | 6
O=C(CCCOc1ccccc1)NCCc1nc2ccccc2[nH]1 | 0 | -3% | -0.3 | x | 3
CC(Oc1ccccc1)C(=O)N1CCN=C1SCc1cccc(F)c1 (stereo not given) | -13 | -3% | -2.2 | x | x
O=C(NCCS(=O)(=O)N1CCN(c2ccccc2F)CC1)c1ccc(Cl)cc1 | -9 | x | -2.7 | x | x
O=c1c2c3c(sc2nc2n1CCCCC2)CCCCC3 | 89 | 77% | 5.9 | 5 | -3 | Arbovirus inh repeat=2
O=C(CN1C(=O)c2ccc(Br)cc2C1=O)NCC1CCCO1 (stereo not given) | -3 | x | 3.1 | x | x
CCCCc1nnc(NC(=O)CN2C(=O)NC3(CCCCC3)C2=O)s1 | -18 | x | -1.2 | x | x
O=C(NCCc1ccccc1)C1CCCN1S(=O)(=O)c1ccc(Cl)cc1 (stereo not given) | -1 | x | -2.0 | x | x
Cc1ccc(C(=O)Nc2ccc(N3CCN(S(C)(=O)=O)CC3)cc2)cc1 | -4 | -3% | -1.5 | -12 | -10
COc1ccc(-c2noc(C3CCCN(C(=O)c4cccc(F)c4)C3)n2)cc1 (stereo not given) | 2 | x | -0.5 | x | x
COc1ccc(OC)c(/C=C2\NC(=O)NC2=O)c1 | 2 | x | -2.6 | x | x
COCCNC(=O)Cn1c(=O)n(Cc2ccc(C(=O)NCCc3ccc(OC)c(OC)c3)cc2)c(=O)c2ccccc21 | -4 | 5% | 4.2 | x | 7
Cc1c(Cl)cccc1NC(=S)NCCC(C)C | 2 | 11% | 3.2 | -18 | 5
CCS(=O)(=O)Nc1cccc(-c2ccc3nnc(-c4cccnc4)n3n2)c1 | 3 | x | 1.7 | x | x

A run of entries taken from the entries so far:
SMILES | Mtb betalactam | Mtb growth | RecA intein inh | YopH inh | Arbovirus inh | others
Cc1nn(-c2ccc(F)cc2)c2nc(N)c(C#N)c(-c3ccc(O)c(O)c3)c12 | 2 | x | 0.9 | x | x
C=CCN1CCN(c2ccncc2S(=O)(=O)N2CCOCC2)CC1 | -8 | -9% | -2.5 | 2 | 2

Screening results from PubChem.
